From PubChem BioAssay
Beta cell apopt: blocks beta cell apoptosis. 300,000 compounds, 0.8% hits. INS-1E cytokine-induced death, ATP luminescence, 48 h; percent of positive-control rescue, neutral wells zero. protection from apoptosis, % (test concentration not listed). AID 435005;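 active = all replicates at 75% or more, or half of them and the mean; inconclusive = half reach 75% but not the mean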;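 note: 0% = cytokine-treated negative control wells and 100% = positive control rescue; higher means more ATP so stronger rescue from cytokine killing; wells of about 40 µL received 100 nL stock; the first replicate is given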
RanGTP-Imp inh: disruptors of Ran-importin-beta complex formation – biochemical, FRET, CFP-Ran, YFP-importin-beta, homogeneous, primary screen; 300,000 compounds, 1.1% hits; AID 2216; cell-free CFP-Ran/YFP-importin-beta FRET ratio; inhibition, % (test concentration not listed);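 active = most replicates above 15%; inconclusive = exactly half above 15%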;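 note: 0% = DMSO wells and 100% = Ran loaded with GDP instead of GTP; wells of about 40 µL received 100 nL stock; the first replicate is given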
T cruzi inh: blocks replication of Trypanosoma cruzi; T. cruzi beta-gal in NIH3T3, luminescence, 90 h; inhibition, % (concentration not given with the values); 300,000 compounds, 1.4% hits;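 active = mean inhibition across valid replicates above about 55%, limit read from the data; inconclusive = mean below that limit but half or more replicates reach it; inactive = mean below it, under half of replicates reach it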;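 note: signal also drops with host cell toxicity which is not excluded here; 0% = plate median of DMSO wells and 100% = zero luminescence signal; higher percent means less beta-gal luminescence so fewer parasites; stock transfer was 50 nL into about 50 µL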
Vif TR-FRET: inhibitors of Vif binding to APOBEC3G peptide, primary screen, biochemical, TR-FRET, GST-Vif 1-94, biotin-A3G peptide, dose response retest (AID 1117319) | 260,000 compounds, 0.57% hits | inhibition, %, or IC50 in µM where a hit was titrated | TR-FRET GST-Vif / biotin-A3G peptide binding; higher % means a stronger effect; test concentration not given here; strong numbers were not always called active;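 active = above the screen mean plus three standard deviations and confirmed in dose response; inconclusive = results disagree or hit not tested in dose response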;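 note: Vif residues 1-94 fused to GST binding biotinylated APOBEC3G peptide 110-148; 0% = full assay without inhibitor and 100% = GST in place of GST-Vif; retest series ran down from 100 µM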
rRNA inh HTS: inhibits bacterial ribosomal RNA function over humanized ribosomes; 350,000 compounds, 1.6% hits; E. coli WT GFP vs humanized-ribosome RFP mutants, fluorescence, 24 h; stronger effect = lower value; DMSO median 0, no signal -100; AID 720706; GFP signal change (wild-type ribosome), % (concentration not given with the values);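 active = significant combined selectivity score with lowered wild-type GFP, culture density cut under 30%, mutant RFP and density less affected; inactive = any of these conditions unmet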; note: one replicate is shown; some compounds called inactive have numbers as strong as hits
AF4-AF9 inh: blocks AF4 peptide binding to human AF9 | P42568 | AlphaScreen, biotin-AF4 peptide binding to FLAG-AF9 | inhibition, % at 10 µM | 350,000 compounds, 0.47% hits | AID 651704;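 active = every replicate reaching a set inhibition limit, whatever the replicate mean, cut at about 25% in these data; inconclusive = mean inhibition reaches that limit but some replicates miss it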;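 note: 0% = plate neutral control median and 100% = total signal loss; the record names both 10 and 1 µM as test concentration; the first replicate is given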
Target sequence (P42568 whole entry, looked up): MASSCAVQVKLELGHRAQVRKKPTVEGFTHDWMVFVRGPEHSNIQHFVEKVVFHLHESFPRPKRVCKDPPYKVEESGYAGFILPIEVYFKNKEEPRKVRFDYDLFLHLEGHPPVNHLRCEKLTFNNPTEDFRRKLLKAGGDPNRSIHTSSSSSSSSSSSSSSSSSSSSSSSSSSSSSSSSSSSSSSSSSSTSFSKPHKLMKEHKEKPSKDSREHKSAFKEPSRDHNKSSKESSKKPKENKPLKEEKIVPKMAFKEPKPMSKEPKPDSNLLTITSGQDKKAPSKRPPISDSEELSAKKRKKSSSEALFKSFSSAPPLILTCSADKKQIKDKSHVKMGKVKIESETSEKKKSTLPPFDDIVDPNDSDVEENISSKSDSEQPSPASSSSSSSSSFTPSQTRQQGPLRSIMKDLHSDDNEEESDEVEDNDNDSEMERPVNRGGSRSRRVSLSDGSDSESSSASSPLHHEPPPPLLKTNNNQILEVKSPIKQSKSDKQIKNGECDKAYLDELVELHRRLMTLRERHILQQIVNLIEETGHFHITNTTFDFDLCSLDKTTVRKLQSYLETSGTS
Calb FLC: affects C. albicans growth with fluconazole; C. albicans CaCi-2 (fluconazole-resistant clinical isolate) + fluconazole, Alamar Blue growth, 48 h; growth inhibition, % (test concentration not listed); 300,000 compounds, 0.57% hits; AID 1979;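 active = most replicates above 75%; inconclusive = exactly half above 75%; inactive = most below 75%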;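 note: all wells also contain fluconazole at 8 µg/ml as a sub-toxic cotreatment; 0% = median of DMSO wells and 100% = median of geldanamycin control wells; wells of about 8 µL received 7.5 nL stock; the first replicate is given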
A1 inh: inhibitors of the anti-apoptotic protein A1, read as caspase activation | 330,000 compounds, 0.066% hits | AID 2462 | MEF A1-2A-BIM cells, Caspase-Glo 3/7 luminescence, 3 h; percent of clofoctol response, vehicle zero | caspase activation, % (test concentration not listed);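 active = over half of replicate activation scores above 10%, or exactly half above 10 with the replicate mean above 10; inconclusive = replicate mean below 10 yet half the replicates above 10; inactive = over half of replicates below 10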;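 note: wells of about 30 µL received 50 nL stock; many hits fall short of the cut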
rRNA inh HTS OD600: also measured in rRNA inh HTS; calls as there; OD600 change, %; measured here: OD600 growth;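 optical density of the mix in the first replicate; 0 = DMSO median and -100 = no signal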
rRNA inh HTS RFP: recorded beside rRNA inh HTS, whose call it bears; RFP signal change, %; measured here: RFP humanized mutant strains;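 first replicate; 0 = DMSO median and -100 = no signal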
An asterisk follows results filed as active; u = inconclusive; x = not tested or not shown. Only part of the results is shown; count on the stated rates, not on these rows.

Every second line gives: Beta cell apopt, RanGTP-Imp inh, T cruzi inh, Vif TR-FRET, rRNA inh HTS, rRNA inh HTS OD600, rRNA inh HTS RFP, AF4-AF9 inh, Calb FLC, A1 inh
COc1ccc(NC(=O)C2CC(=O)n3c(nc4ccccc43)N2)cc1 (stereo not given)
  -2, 4.2, 7, 13%, 11, 6, -0.3, -4.2, 24, -0.1
O=c1[nH]c(NNC(=S)NCc2ccccc2)nc2c1C1(CCCCC1)Cc1ccccc1-2
  -6, -0.1, 0, x, -1, -10, -1.7, 0.3, u, 1.2
Cc1cc(C(=O)N/N=C/c2ccc(-c3ccc([N+](=O)[O-])cc3C)o2)n[nH]1
  -1, -19, 20, x, -41*, -21*, 0.5*, 0.6, -5, 0.9
CCOc1ccc(C(=O)N/N=C/c2ccc(-c3ccc(S(=O)(=O)Nc4ncccn4)cc3)o2)cc1
  7, -2.3, 3, 19%, x, x, x, x, 7, 0.2
CC(=O)N1c2ccc(S(=O)(=O)N3CCC(C(=O)NCc4ccc(N(C)C)cc4)CC3)cc2CC1C (stereo not given)
  4, 67*, -2, x, 14, 22, -0.1, 2.5, -4, -0.6
c1ccc(-c2noc(CC3CCCCC3)n2)cc1
  -3, -0.6, 2, -10%, 9, 15, -0.1, -1.9, -1, -1.7
COc1ccc(N=CC2=C(O)CC(C)(C)CC2=O)cc1OC
  5, 0.5, -10, 14%, 5, 5, 1.1, -1.0, 22, -0.8
O=C(COC(=O)C1(c2ccc(F)cc2)CCCC1)NC1CC1
  -6, -0.4, 2, 9%, x, x, x, x, -18, -0.3
Cc1ccc(CC2C(=O)N(c3ccccc3)C(=O)C2C)cc1 (stereo not given)
  0, -0.1, -4, 8%, -4, -8, -7.9, -1.6, 15, 0.4
COC(=O)[C@@H]1C[C@H]2CC[C@H](O)C[C@H]2N1Cc1ccc(C(C)(C)C)cc1
  1, 14, -13, -15%, -2, 2, 3.6, 4.1, 2, 0.1
C=CCNC(=S)NNC(=O)C(CC(C)C)CC(C)O (stereo not given)
  1, -0.1, -4, 0%, 15, 5, 3.7, -2.2, -6, 0.0
CCOC(=O)C1C(=O)C=C(c2ccc(OC)cc2)CC1c1ccco1 (stereo not given)
  -5, -4.7, -33, 19%, x, x, x, x, 7, 0.0
CC1CCN(C(=O)CSc2nnc3ccccn23)CC1
  -3, x, x, x, 6, 15, 2.0, -4.7, x, 0.5
C/C(=N\Nc1ccc(C(=O)O)cc1)c1ccc(Cl)s1
  -3, -8.6, -14, -14%, -4, -3, -3.0, 4.3, 3, -3.6
CCOC(=O)/C(=C\c1ccc(OC(F)F)cc1)C1=Nn2c(nnc2-c2ccc(Cl)cc2)SC1
  131*, -2.0, 39, 14%, x, x, x, x, u, u
COc1ccc(CC(=O)Oc2cc(C)ccc2C)cc1
  -9, 6.8, -12, x, -2, 0, -1.0, -2.3, 0, -1.1
CCCN(C(=O)COC(=O)Cn1c(=O)oc2ccccc21)c1c(N)n(Cc2ccccc2)c(=O)[nH]c1=O
  x, 4.6, -1, 0%, 2, 4, -0.9, -2.1, -6, -0.6
Cc1ccc(/C=C2\SC(N)=NC2=O)s1
  1, -0.8, -6, x, -4, -7, -3.0, -3.2, 3, 2.0
CC(NC(=O)COC(=O)C1CC1C)c1ccccc1 (stereo not given)
  -1, x, x, x, 21, 14, 3.1, 0.0, x, 2.4
Cc1nn(-c2ccccc2)c2sc(C(=O)OCn3nnc4ccccc4c3=O)cc12
  -1, -0.3, -6, 1%, 14, 11, -9.1, -2.7, -5, 1.0
CC(=O)Nc1ccc(N(C(=O)c2cnccn2)C(C(=O)NC2CCCCC2)c2ccc(F)cc2)cc1 (stereo not given)
  -4, -1.5, -4, x, 4, 2, -1.5, 0.1, 1, 0.8
Brc1cccc(-c2nnc(SCc3nc4ccccc4[nH]3)o2)c1
  -4, 4.3, -3, -10%, x, x, x, x, 2, -0.9
CCn1c(SCc2nc(-c3cccs3)no2)nnc1-c1c[nH]c2ccccc12
  6, -0.8, 15, 4%, x, x, x, x, -4, 0.7
Nc1ccc(-c2nc3ccccc3[nH]2)cc1
  x, -10, 1, 26%, -3, 0, -2.2, -0.3, 4, -7.4
O=C(NCCc1cccs1)C1CCC(=O)N(CCc2cccc(F)c2)C1 (stereo not given)
  -8, 4.8, -4, x, 3, 2, 0.2, 0.4, -17, -0.1
CCOC(=O)CN(C)Cc1cn[nH]c1-c1ccc2cc(OC)ccc2c1
  x, -0.7, -6, x, -3, -4, 3.5, 5.2, -2, 1.2
COc1ccc(F)cc1S(=O)(=O)Nc1ccc2c(c1)OCO2
  -1, 5.3, -3, 8%, x, x, x, x, 6, -0.3
O=C(NCc1ccccc1Cl)c1cccc(NC(=O)c2ccccc2)c1
  -8, u, 9, x, x, x, x, x, 0, -2.1
Nc1cc(Cl)ccc1C(=O)OCC(=O)N1CCOCC1
  7, 1.1, -11, x, -9, -11, -0.8, -1.3, 0, -0.7
CCOC(=O)C(C)n1nc(/C=C/c2ccccc2)ccc1=O (stereo not given)
  1, -3.9, 9, -3%, x, x, x, x, 5, -0.4
COc1ccc(N2CCN(Cc3nc4c(c(=O)[nH]c(=O)n4C)n3Cc3cccc(Cl)c3)CC2)cc1
  -1, -2.4, 14, x, 5, 6, 0.9, 8.0, -3, 0.3
COc1cccc(NC(=O)N2CCN(c3cccc(C)c3)C(C)C2)c1 (stereo not given)
  10, 0.3, -2, 6%, x, x, x, x, 32, -0.4
O=C(N/N=C/c1ccc([N+](=O)[O-])cc1)c1cccs1
  2, 2.8, 8, -8%, 6, 19, -1.5, x, 25, -6.3
O=C(CSCc1ccc([N+](=O)[O-])cc1)Nc1cccc(C(=O)Nc2ccccc2C(=O)O)c1
  -9, 2.1, -17, u, -6, -12, -1.2, -5.0, 9, -0.4
Cc1cc(C)n(CCCNC(=O)c2cc(COc3ccc(C)c(C)c3)on2)n1
  -1, -2.2, 4, x, 6, -21, 1.8, -1.7, -2, 0.7
Cc1ccc(-c2csc(NCCn3c(C(F)(F)F)nc4ccccc43)n2)cc1
  3, 3.0, 45, x, 14, 12, -6.8, 2.1, 16, -0.1
COc1ccc(S(=O)(=O)N2CCC(C(=O)NC3CCCC3)CC2)cc1OC
  -2, -3.7, -19, -1%, 4, 14, 3.1, -1.6, -12, 0.2
O=c1cc(NCCCO)c2ccccc2o1
  -7, 4.0, -20, -1%, x, x, x, x, -1, 1.1
CC(=O)Nc1nc2ccccc2n1CCOc1ccccc1Cl
  30, 2.4, 38, -1%, x, x, x, x, -5, 1.5
Cc1ccc(Cn2nnc3c(=O)[nH]c(C4CCCN(S(=O)(=O)c5ccccc5F)C4)nc32)cc1 (stereo not given)
  -3, 6.1, 9, x, 3, -1, -1.7, -1.9, -8, -0.2
Cc1ccc(C(=O)C(NC(=O)c2ccco2)Nc2sc3c(c2C(N)=O)CCCC3)cc1 (stereo not given)
  -9, 7.5, 4, 16%, x, x, x, x, 5, 0.7
O=C(NC1CCCCCC1)c1ccc[nH]c1=S
  -4, 1.1, 58*, -1%, -3, 6, -3.8, -3.5, -7, 0.9
CC(=O)Nc1ccc(S(=O)(=O)NC2(C(F)(F)F)C(=O)Nc3c2c(=O)[nH]c(=O)n3Cc2cccnc2)cc1 (stereo not given)
  0, -2.5, -25, -1%, 14, 7, 5.0, 0.0, -4, 0.5
Cc1ccc(S(=O)(=O)N(C)c2c(C)ccc(S(=O)(=O)Nc3ccncc3)c2C)cc1
  -4, -5.7, 3, 7%, 1, 15, 1.0, 6.9, -4, -0.6
Cc1ccccc1NC(=S)NC(=O)COc1ccccc1C
  x, u, -2, -4%, 8, 8, -0.4, -2.6, 1, 1.0
CC1CCCN(CC(=O)Nc2ccc(S(=O)(=O)N3CCCC3)cc2)C1 (stereo not given)
  -5, 4.6, -6, x, 8, 5, -1.4, -0.3, 3, 0.4
Fc1cccc(CSc2ncnc3c2oc2ccccc23)c1
  -5, -4.1, 6, -257%, x, x, x, x, 40, -0.4
O=C(CCl)N1CCCC1c1ccc2c(c1)OCCO2 (stereo not given)
  -2, 0.2, -27, x, 9, 12, 1.8, 0.0, 8, 1.3
CC(=O)N1CCN(c2ccc(NC(=O)c3ccco3)cc2)CC1
  9, -0.7, -6, x, 2, 1, 0.2, -7.3, 1, -0.5
CCOc1ccc(C(=O)N[C@H](C(=O)NNC(=O)c2cccs2)C(C)C)cc1
  -3, x, x, -1%, 6, 11, 1.2, 0.8, x, 0.2
CCOC(=O)C(CCCCCOc1ccc([N+](=O)[O-])cc1)C(=O)OCC
  0, u, -2, 25%, x, x, x, x, 4, 0.1
CCOC(=O)C=Nc1c(N)n(C)c(=O)n(C)c1=O
  4, 13, -3, -1%, x, x, x, x, -4, -0.1
O=c1c2ccccc2cnn1Cc1n[nH]c(=S)n1-c1ccccc1Cl
  -7, -4.2, 0, 0%, 11, 25, 5.3, -10, 5, -0.4
O=C(Cn1nnc(-c2ccccc2)n1)NCc1ccco1
  -4, 6.0, -3, 1%, x, x, x, x, -31, 0.5
C=CCn1c(CNC(=O)c2ccco2)nnc1SCC(=O)Nc1cccc(Br)c1
  -8, -6.3, -9, 18%, x, x, x, x, -4, -0.7
CC(OC(=O)c1ccc(O)cc1)C(=O)Nc1ccc(Oc2ccccc2)cc1 (stereo not given)
  -3, x, x, -3%, x, x, x, -1.8, x, -0.8
